# BJeLR viability – BJeLR cell viability loss, primary screen, luminescence, CellTiterGlo ATP; BJeLR fibroblasts viability, 48 h; HRASV12, hTERT and SV40 LT/ST transformed; viability loss activity score, % (concentration not given with the values); 0.64% of 30,000 active; in the data active = viability loss activity score above about 50%; about a fifth of its hits are not listed in these tables;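 also: higher score means fewer live cells and less ATP luminescence; stock transfer was 50 or 100 nL into about 30 µL; 0% = vehicle wells and 100% = a reference killing control; one replicate is shown; the record names a cut of 85%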
# A1 inh – inducers of caspase activity in MEF A1-2A-BIM cells, primary screen, A1 inhibitor project, cell-based, CaspaseGlo luminescence; caspase-Glo luminescence, 3 h; percent of clofoctol signal, DMSO as zero; caspase activation, % (concentration not given with the values); 0.51% of 21,000 active; AID 2241, 2010;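 active = most replicate scores above 10, or exactly half above 10 with mean activity above 10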;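 also: effector caspase 3 and 7 activity cleaving a DEVD luciferin substrate; 50 nL library stock added to about 30 µL; numbers are from one replicate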
# * = called active by the depositor; nt = not tested or not shown. Only part of the results is shown; rates above refer to the full screens.
# Each structure is followed by: BJeLR viability, A1 inh
- C[C@@H]1CN([C@H](C)CO)C(=O)c2cccc(NS(=O)(=O)c3ccccc3)c2O[C@H]1CN(C)Cc1ccc(C(=O)O)cc1
    6.1, nt
- CNC(=O)c1cc2c(cn1)[nH]c1ccccc12
    0.6, -1.0
- COc1cc(OCc2ccccc2)ccc1CN1CCN(c2ccc(C(F)(F)F)cn2)CC1
    -1.8, nt
- CC(C)(C)NC(=O)Nc1cc(C(F)(F)F)cc(C(F)(F)F)c1
    3.0, -0.1
- C[C@H]1CN([C@@H](C)CO)C(=O)c2cccc(NC(=O)C3CC3)c2O[C@H]1CN(C)C
    1.4, nt
- OC1(C(F)(F)F)CC(c2ccc(F)cc2)=NO1 (stereo not given)
    -1.2, -0.4
- CCC[C@@H]1C[C@@H](C(=O)N[C@@H]([C@H]2O[C@H](SC)[C@H](O)[C@@H](O)[C@@H]2O)[C@@H](C)O)N(C)C1
    0.2, 0.2
- C[C@H]1CN([C@@H](C)CO)C(=O)c2cccc(NC(=O)Nc3ccc(F)cc3)c2O[C@H]1CN(C)C(=O)Nc1ccc2c(c1)OCO2
    -1.3, nt
- O=C1C[C@H](c2ccccc2)Oc2c(Cc3ccccc3O)c(O)cc(O)c21
    9.6, -0.7
- C[C@@H]1CN([C@@H](C)CO)C(=O)c2cc(NC(=O)Nc3ccc4c(c3)OCO4)ccc2O[C@H]1CN(C)CC1CCCCC1
    2.5, 0.4
- O=C(NCCc1ccccc1)c1cccc(N2C(=O)C3CC=CCC3C2=O)c1 (stereo not given)
    2.2, -0.4
- C[C@H](CO)N1C[C@H](C)[C@@H](CN(C)S(=O)(=O)c2cccs2)Oc2ccc(NC(=O)NC3CCCCC3)cc2C1=O
    -2.9, 0.2
- Cc1nc(-c2nnc(-c3ccccc3)o2)c(C(F)(F)F)o1
    -2.4, -1.7
- COC(=O)c1cccc(C(=O)Nc2ccc(F)cc2)n1
    7.9, -6.4
- CC1CC(C)(C)NC(=S)N1CCC(=O)N1CCc2ccccc2C1 (stereo not given)
    -3.2, nt
- C[C@@H]1CN([C@@H](C)CO)C(=O)c2cccc(NC(=O)C3CCOCC3)c2O[C@H]1CN(C)CC1CC1
    1.9, nt
- COc1ccc(NC(=O)C(C)Oc2ccc3c(C)c(CCC(C)C)c(=O)oc3c2)cc1 (stereo not given)
    9.9, -0.6
- C=C(CCCCCCCC(=O)O)C(=O)O
    -10.9, -4.6
- CC(C)(C)C(=O)Nc1ccccc1C(=O)NCc1cccnc1
    1.9, -0.1
- Cc1ccc(S(=O)(=O)N(C)C[C@@H]2Oc3ccc(NC(=O)NC4CCCCC4)cc3C(=O)N([C@@H](C)CO)C[C@@H]2C)cc1
    -8.0, -0.8

# Of the compounds above, these have a tert-butyl group.
# Each structure is followed by: BJeLR viability, A1 inh
- CC(C)(C)NC(=O)Nc1cc(C(F)(F)F)cc(C(F)(F)F)c1
    3.0, -0.1
- CC(C)(C)C(=O)Nc1ccccc1C(=O)NCc1cccnc1
    1.9, -0.1

# More compounds.
# Each structure is followed by: BJeLR viability, A1 inh
- C=CCN(CC=C)C(=O)c1cc(-c2ccccc2)nc2ccccc12
    4.2, -1.1
- CN(C(=O)C1CC(c2ccccc2F)=NO1)c1ccccc1 (stereo not given)
    -2.9, nt
- CC(C)(C)c1nc2scc(-c3ccc(Cl)cc3)n2n1
    -5.4, -0.1
- COc1ccc(S(=O)(=O)Nc2cccc3c2O[C@H](CN(C)Cc2ccncc2)[C@H](C)CN([C@H](C)CO)C3=O)cc1
    1.4, nt
- CCc1cccc(C)c1NC(=O)CCC(=O)N1CCOc2ccccc21
    -2.8, 0.2
- O=C(Cn1sc2ccccc2c1=O)N1CCN(c2ccccc2)CC1
    -6.7, 0.9
- COc1cc(C)c2c(c1C=O)Oc1c(c(C)c(O)c3c1C(O)OC3=O)OC2=O (stereo not given)
    3.6, -0.8
- C[C@@H]1CN([C@@H](C)CO)C(=O)c2cc(NC(=O)Nc3ccc(C(F)(F)F)cc3)ccc2O[C@@H]1CN(C)C(=O)Nc1ccccc1
    -5.9, -0.4
- CC(=O)[C@H]1[C@H](C#N)C[C@H]2[C@@H]3CC=C4C[C@@H](O)CC[C@]4(C)[C@H]3CC[C@@]21C
    8.6, 0.6
- C[C@@H]1CN([C@@H](C)CO)C(=O)c2cccc(NS(=O)(=O)c3ccc(F)cc3)c2O[C@@H]1CN(C)C(=O)Nc1ccc(C(F)(F)F)cc1
    2.2, nt
- COC(=O)C[C@H]1C(C)(C)C(=O)[C@@H]2CC3=C4CC(=O)O[C@@H](c5ccoc5)[C@]4(C)CCC3[C@@]1(C)C2=O (stereo not given in full)
    -0.1, 0.1
- Brc1ccccc1OCc1nc2ccccc2[nH]1
    9.1, -6.7
- C[C@@H]1CN([C@H](C)CO)C(=O)c2cc(N(C)C)ccc2O[C@@H]1CN(C)S(=O)(=O)c1ccc(F)cc1
    -3.4, -0.1
- C[C@@H]1CN([C@H](C)CO)C(=O)c2cc(NS(=O)(=O)c3cccs3)ccc2O[C@H]1CN(C)C(=O)Nc1cccc2ccccc12
    -2.2, 0.1
- CC(=O)N1c2ccccc2NC2=C(C(=O)CCC2)C1c1ccc(Cl)cc1 (stereo not given)
    2.8, 0.4
- COc1ccc(N2C(=O)CCC(C(=O)N3CCN(c4ccccc4)CC3)C2c2ccc(F)cc2)cc1 (stereo not given)
    -3.7, nt
- CCc1ccc(NC(=O)C23CC4CC(CC(C4)C2)C3)cc1
    4.0, -0.2
- C[C@H](CO)N1C[C@H](C)[C@H](CN(C)Cc2ccncc2)Oc2ccc(NS(=O)(=O)c3ccc(F)cc3)cc2C1=O
    0.7, 1.0
- CC1(C)Oc2ccc(C#N)cc2[C@@H](OC2=CC(=O)CC2)[C@@H]1O
    2.9, -0.3
- CCCCS(=O)(=O)NC1=NCN(C2CCN(Cc3ccccc3)CC2)CN1
    -6.1, 0.0
- CNC[C@H]1Oc2c(NC(=O)Nc3ccc(OC)cc3)cccc2C(=O)N([C@H](C)CO)C[C@H]1C
    0.3, nt
- CCc1c(C)[nH]c2c1C(=O)C(CN1CCOCC1)CC2 (stereo not given)
    -3.0, -1.1
- C(=NCc1cccnc1)c1c2ccccc2cc2ccccc12
    4.5, -1.7
- CCOC(=O)C(C)(C)Sc1nc2c(c(=O)n1-c1ccc(F)cc1)SCC2
    5.0, nt
- CCC(=O)N1C(CC(=O)Nc2ccc(F)cc2)C(=O)NC2CCCCC21 (stereo not given)
    9.4, 1.0
- COc1ccc(NC(=O)N(C)C[C@H]2Oc3ccc(N(C)C)cc3C(=O)N([C@@H](C)CO)C[C@@H]2C)cc1
    3.3, -0.6
- C[C@H](CO)N1C[C@H](C)[C@@H](CN(C)Cc2ccc(C(F)(F)F)cc2)Oc2c(NC(=O)c3ccncc3)cccc2C1=O
    8.9, nt
- C[C@H](O)CC1=C[C@H](O)[C@@H](C)OC1=O
    -4.6, -0.1
- C[C@@H]1CN([C@@H](C)CO)C(=O)c2cc(NC(=O)CCC(F)(F)F)ccc2O[C@@H]1CN(C)CC1CCCCC1
    4.2, 0.0
- CCN1C(=S)NC2c3cc(Br)ccc3OC1(C)C2C(=O)Nc1ccc(Cl)cc1 (stereo not given)
    -2.3, 7.9
- FC(F)(F)c1cc(-c2ccccc2)nc(NC2CCCC2)n1
    0.8, nt
- Cc1nc2ccc(NS(=O)(=O)c3ccccc3C(F)(F)F)cc2o1
    9.5, -1.1
- Brc1ccc(-c2nnc3sc(CN4CCC5(CC4)OCCO5)cn23)cc1
    0.7, nt
- C[C@@H]1CN([C@@H](C)CO)C(=O)c2cc(NS(=O)(=O)c3ccccc3)ccc2O[C@H]1CN(C)C
    -3.8, -0.4
- C[C@@H]1CN([C@H](C)CO)C(=O)c2cc(NC(=O)CCCN(C)C)ccc2O[C@@H]1CN(C)Cc1ccncc1
    -0.2, 0.2
- Cc1cc(C(=O)Nc2cccc3c2O[C@@H](CN(C)S(=O)(=O)c2cn(C)cn2)[C@H](C)CN([C@H](C)CO)C3=O)n(C)n1
    2.0, nt
- CCc1ccc(-c2nc(CSCC(=O)N3CCc4ccccc4C3)c(C)o2)cc1
    1.9, nt
- C[C@@H]1CN([C@H](C)CO)C(=O)c2cc(NC(=O)NC3CCCCC3)ccc2O[C@H]1CN(C)Cc1ccc(C(=O)O)cc1
    0.3, -0.5
- N/C(=N/c1nc2ccccc2s1)NC(=O)c1cccc(Cl)c1
    29.3, -0.8
- COc1ccccc1C1=NOC(C(=O)NC2CCCC2)C1 (stereo not given)
    -5.6, nt
- O=c1cc(-c2ccc(O)cc2)oc2c(C3O[C@H](CO)[C@@H](O)[C@H](O)[C@H]3O)c(O)cc(O)c12 (stereo not given in full)
    -5.8, -0.4
- C[C@@H]1CN([C@@H](C)CO)C(=O)c2cc(NC(=O)Cn3cnnn3)ccc2O[C@@H]1CN(C)Cc1ccc(-c2ccccc2)cc1
    1.8, 0.1
- O=C(c1ccccc1)C(Sc1nc2ccccc2[nH]1)c1ccccc1 (stereo not given)
    -4.2, -0.8
- Cc1cc(C)nc(NC(=S)c2ccc(NC(=O)/C=C/C(=O)O)cc2)n1
    -0.5, 0.1
- CCN(CC)C(=S)C(=O)Nc1cc(C(F)(F)F)cc(C(F)(F)F)c1
    5.8, -0.8
- COc1ccc(S(=O)(=O)N(C)C[C@H]2Oc3ccc(NC(=O)Nc4ccc(C(F)(F)F)cc4)cc3C(=O)N([C@@H](C)CO)C[C@H]2C)cc1
    1.2, -0.5
- C[C@@H]1CN([C@H](C)CO)C(=O)c2cccc(NS(=O)(=O)c3cn(C)cn3)c2O[C@H]1CN(C)S(=O)(=O)c1cccs1
    1.4, nt
- COc1ccc(-c2cc(=O)c3ccc(OC)cc3o2)cc1
    -1.3, -0.1
- C[C@H](CO)N1C[C@H](C)[C@@H](CN(C)S(=O)(=O)c2cn(C)cn2)Oc2ccc(NC(=O)Nc3ccc(C(F)(F)F)cc3)cc2C1=O
    -4.5, 0.1
- COc1ccc(NC(=O)N(C)C[C@H]2Oc3ccc(NS(=O)(=O)c4ccccc4)cc3C(=O)N([C@H](C)CO)C[C@H]2C)cc1
    -0.1, -0.7
- Cc1ccc(S(=O)(=O)Nc2ccc3c(c2)C(=O)N([C@H](C)CO)C[C@@H](C)[C@H](CN(C)CC2CCCCC2)O3)cc1
    -0.9, 0.0
- COc1ccc(S(=O)(=O)N(C)C[C@@H]2Oc3ccc(NC(=O)Nc4ccc(F)cc4)cc3C(=O)N([C@@H](C)CO)C[C@@H]2C)cc1
    -0.6, 0.1
- CCCN(CCC)C(=O)c1cccc2c1-c1ccccc1C2=O
    -0.7, 0.6
- COc1c(O)cc2oc3cc(O)c(CC=C(C)C)c(O)c3c(=O)c2c1CC=C(C)C
    4.2, 0.2
- COC(=O)c1ccccc1NC(=O)c1cccs1
    0.7, -6.0
- C[C@@H]1CN([C@H](C)CO)C(=O)c2cc(NC(=O)Cc3ccccc3)ccc2O[C@H]1CN(C)CC1CCCCC1
    -0.5, -0.9
- O=C(Nc1cccc(-c2nc3ccccc3[nH]2)c1)c1ccccc1
    3.9, -5.7
- Cc1ccc(S(=O)(=O)N(C)C[C@H]2Oc3c(NS(=O)(=O)c4cn(C)cn4)cccc3C(=O)N([C@H](C)CO)C[C@@H]2C)cc1
    -1.2, nt
- C[C@H]1CN([C@@H](C)CO)C(=O)c2cc(NC(=O)CCCN(C)C)ccc2O[C@H]1CN(C)CC1CC1
    -4.9, -0.2
- C[C@@H]1CN([C@H](C)CO)C(=O)c2cc(NC(=O)CCN3CCOCC3)ccc2O[C@H]1CN(C)C(=O)Nc1ccc(F)cc1
    1.3, -0.5

# (list continues)
# Each structure is followed by: BJeLR viability, A1 inh
- CCCCCCC(=O)OC1OC(CO)C(O)C2OCC(C(=O)O)COC12 (stereo not given)
    -9.5, 1.1
- Cc1nn2c(nc1=O)SCC(c1ccccc1)=N2
    2.7, nt
- C[C@@H]1CN([C@H](C)CO)C(=O)c2cc(NC(=O)NC3CCCCC3)ccc2O[C@@H]1CN(C)S(C)(=O)=O
    3.8, 0.9
- C=C(C)c1cccc(C(C)(C)NC(=O)NCCc2ccc(F)cc2)c1
    -2.0, 0.3
- C[C@@H]1CN([C@@H](C)CO)C(=O)c2cccc(NC(=O)Nc3cccc4ccccc34)c2O[C@H]1CN(C)C(=O)Nc1ccc(C(F)(F)F)cc1
    -0.9, nt
- C[C@H](CO)N1C[C@H](C)[C@H](CN(C)S(=O)(=O)c2ccccc2)Oc2c(NC(=O)C3CCCCC3)cccc2C1=O
    0.2, nt
- CNC[C@H]1Oc2ccc(NC(=O)Nc3ccc4c(c3)OCO4)cc2C(=O)N([C@@H](C)CO)C[C@H]1C
    0.1, 0.5
- COc1ccc(NC(=O)Nc2ccc3c(c2)C(=O)N([C@@H](C)CO)C[C@@H](C)[C@@H](CN(C)C(=O)Nc2ccc(OC)cc2)O3)cc1
    2.4, -1.0
- COc1cc(/C=C/C(=O)N2CCC=CC2=O)cc(OC)c1OC
    25.1, 0.7
- Cc1noc(C)c1S(=O)(=O)Nc1ccc2c(c1)C(=O)N([C@H](C)CO)C[C@H](C)[C@H](CN(C)Cc1ccccc1)O2
    -1.3, 2.1
- COc1ccc(/C=C2/SC(=S)NC2=O)cc1COc1ccc(F)cc1F
    11.4, 0.0
- CCOc1ccc(OCCSc2nc3ccccc3n2Cc2ccccc2)cc1
    -7.1, -0.2
- COc1ccc(C2SCCN2C(=S)Nc2cccc(C(F)(F)F)c2)cc1 (stereo not given)
    0.5, nt
- Cc1nn(Cc2nnc(SCc3c(Cl)cccc3Cl)o2)c(C)c1Br
    -2.7, -0.5
- C[C@H]1CN([C@@H](C)CO)C(=O)c2cccc(NC(=O)Nc3ccc(F)cc3)c2O[C@@H]1CN(C)S(=O)(=O)c1cn(C)cn1
    -5.5, nt
- C=CCNC(=O)c1c(C)cc(C)cc1C
    6.3, 1.1
